# H5N1 antiviral: antiviral screen in MDCK cells, H5N1 avian flu | cytopathic effect, luminescence, 72 h; active compounds read high; no value below 0 was filed and about half of the inactive calls have no number; reference of the scale not given here | inhibition, % at 50 µM | 96,000 tested, 0.07% active | AID 740; in the data active means inhibition above about 25%
# * hit, by the source's call; i = inactive. An excerpt (hit frequency here may not be typical).
nr	Structure	H5N1 antiviral
1	CCOc1ccc(C)cc1S(=O)(=O)n1ccnc1	1.0
2	Cc1cc(C)c2nc(-c3ccccn3)cc(C(=O)Nc3ccc(S(=O)(=O)Nc4cc(C)on4)cc3)c2c1	2.8
3	O=C(Nc1c(Cl)cc(Cl)cc1-c1nc2ccccc2s1)c1ccc(Br)o1	1.8
4	COc1ccccc1-c1cc(C(=O)Nc2ccccc2SC)no1	i
5	O=C(CN1CCN(Cc2ccc(F)cc2Cl)C1=O)NCCc1ccc(Cl)cc1	0.2
6	CC1CCCN(C(=O)C23CCC(C)(C(=O)C2)C3(C)C)C1 (stereo not drawn)	0.5
7	Cn1c2ccccc2c2c(C(=O)NCC3CCCO3)cn(C3CCCC3)c(=O)c21 (stereo not drawn)	0.1
8	CCN1CCN(CCCNC(=O)c2cc3c(=O)[nH]c4ccccc4c3s2)CC1	2.3
9	N#CCCN/N=C(/Cc1nc2ccccc2[nH]1)c1ccc(Cl)cc1	i
10	O=C(CSc1nc2ccccc2s1)N1c2ccccc2Sc2ccc(C(F)(F)F)cc21	1.8
11	CCOC(=O)CSC1=C(C#N)C(c2ccccc2F)C(C(C)=O)=C(C)N1 (stereo not drawn)	0.4
12	COc1ccc(N2C(=O)CC(c3ccc(OC(C)C)cc3)C2=O)cc1 (stereo not drawn)	i
13	CC(c1ccc(Cl)cc1)n1c(-c2ccc3ccccc3n2)n[nH]c1=S (stereo not drawn)	1.0
14	Cc1nnc(SCC(=O)Nc2nsc(-c3ccc(Cl)cc3)n2)s1	2.2
15	CC[N+]1(C)CCC(=C2c3ccccc3CC(=O)c3sccc32)CC1 (stereo not drawn)	0.7
16	COc1ccc(NC(=O)Cn2nnc(-c3ccccc3NC(=O)C3CC3)n2)cc1	0.5
17	CCc1nc2oc3ccccc3c(=O)c2c(=O)n1-c1ccccc1	0.7
18	CCc1ccc(OCCNC(=O)c2ccccc2SCc2ccccc2)cc1	1.1
19	C=CCn1c(O)c(C2=c3ccccc3=NC2=O)s/c1=N/c1nccs1	i
20	CCOC(=O)c1c(NC(=O)CSc2nnc(C)c(=O)[nH]2)sc2c1CCCC2	0.2
21	O=C(NC1CCCCC1)N1CCSC1=Nc1ccccc1	i
22	C/C(=N/NS(=O)(=O)c1ccc(Br)cc1)c1ccc(NC(=O)c2ccc(C)o2)cc1	0.2
23	FC(F)(F)COc1nc(N2CCCCC2)nc(N2CCNCC2)n1	i
24	COc1cc(/C=N/NP(=S)(c2ccccc2)c2ccccc2)ccc1O	0.2
25	CC(=O)Nc1nc2n(n1)C(c1ccc(F)cc1)C=C(c1ccccc1)N2 (stereo not drawn)	i
26	CN1C(=O)C(Cc2cccs2)C(=O)N(C)C1=O	1.0
27	Cc1cc(C)n(-c2ccc(-n3ccnc3)nn2)n1	0.6
28	CCc1ccc(OCC(=O)OC2CCS(=O)(=O)C2)cc1 (stereo not drawn)	i
29	COc1ccccc1NC(=O)C1CCCCC1	i
30	COc1ccccc1NC(=O)c1ccc(-n2cccn2)nc1	i
31	Cn1nnnc1SCC(=O)NCc1cccc(C(=O)O)c1	i
32	c1ccc2c(c1)oc1c(NCc3ccc4c(c3)OCO4)ncnc12	i
33	Cc1cccc(NC(=S)NN2CCN(C)CC2)c1C	i
34	CCCCCCc1nnc(N)s1	i
35	Cc1ccccc1C(=O)Nc1cccc(NC(=O)c2ccc(-c3ccc(Br)cc3)o2)c1	i
36	COc1cccc(/C=C2\N=C3CCCCCN3C2=O)c1	i
37	CCCn1c(SCC(=O)NC(=O)NCc2ccco2)n[nH]c1=O	i
38	Cn1c(N2CCCC2)nc2c1c(=O)n(Cc1ccc(F)cc1)c(=O)n2C	i
39	CC1(C)Cc2nc(N)c(C(=O)NCCO)cc2CO1	0.2
40	COc1ccc(Cn2c(C)ccc2C)cc1	0.4
41	CCCCOC(=O)Nc1ccc(N2CCCCC2)cc1	0.7
42	O=C(O)CSc1nnc(-c2ccc3c(c2)OCO3)o1	0.5
43	COc1ccc(C(=S)N2CCN(C)CC2)cc1Br	1.3
44	CC(O)CNc1nc2ccccc2n1-c1ncnc2sc3c(c12)CCC3 (stereo not drawn)	i
45	CCOc1ccc(S(=O)(=O)N(CC(=O)Nc2cc(C)on2)Cc2ccccc2Cl)cc1	1.4
46	CC1=CC(C)(C)N(C(=O)C(C)N2C(=O)c3ccccc3C2=O)c2c(C)cc(C)cc21 (stereo not drawn)	i
47	O=C1CC(c2ccccc2)CC(O)=C1C=NCCN1CCN(C(=O)Cc2ccccc2)CC1 (stereo not drawn)	0.9
48	CCOC(=O)c1ccccc1NC(=O)CN(c1ccccc1OC)S(C)(=O)=O	0.1
49	O=C(CN1CCC2(CC1)OCCO2)c1c[nH]c2ccccc12	i
50	CC1=C(C#N)C(NC(=O)c2ccco2)(C(F)(F)F)C(=O)N1 (stereo not drawn)	i
51	NC(=NC(=O)c1ccccc1)C1=C(O)CCC1=O	2.5
52	O=C(Nc1sc2c(c1C(=O)NC1CC1)CCCCCC2)c1ccco1	i
53	CCOC(=O)c1sc(-c2ccccc2)cc1NC(=O)CSc1nnnn1C	i
54	CSc1cccc(NC(=O)c2nnn(Cc3ccccc3)c2N)c1	0.1
55	O=C(CSc1nc2c([nH]c3ccccc32)c(=O)n1-c1ccccc1)N1CCOCC1	i
56	COc1ccc(C2=NOC(C(=O)NCc3ccco3)C2)cc1 (stereo not drawn)	i
57	O=P(CO)(Cc1ccccc1)Cc1ccccc1	0.5
58	CCN(CCO)C(=O)CC(c1ccccc1)c1cc(Br)ccc1O (stereo not drawn)	1.1
59	COCCn1c(CN(Cc2ccccc2)Cc2ccccc2)nc2c1c(=O)n(C)c(=O)n2C	3.9
60	O=C(Cn1cnc2c(nnn2-c2ccccc2)c1=O)NCc1ccco1	4.0

# Some of these compounds in order of heavy-atom count, smallest number first:
nr	Structure	H5N1 antiviral
33	Cc1cccc(NC(=S)NN2CCN(C)CC2)c1C	i
31	Cn1nnnc1SCC(=O)NCc1cccc(C(=O)O)c1	i
52	O=C(Nc1sc2c(c1C(=O)NC1CC1)CCCCCC2)c1ccco1	i
25	CC(=O)Nc1nc2n(n1)C(c1ccc(F)cc1)C=C(c1ccccc1)N2 (stereo not drawn)	i
20	CCOC(=O)c1c(NC(=O)CSc2nnc(C)c(=O)[nH]2)sc2c1CCCC2	0.2
7	Cn1c2ccccc2c2c(C(=O)NCC3CCCO3)cn(C3CCCC3)c(=O)c21 (stereo not drawn)	0.1

# (next part)
nr	Structure	H5N1 antiviral
61	CC(C)NS(=O)(=O)c1ccc(OCC(=O)Nc2cccc3ccccc23)cc1	0.2
62	COc1ccc(C(=O)Cc2cc(OC)c(OC)cc2[N+](=O)[O-])c(OC)c1	0.6
63	Nc1nnnn1/N=C/c1cccs1	0.5
64	O=C(CCCC(=O)OCC(F)(F)C(F)F)Nc1ccc(NC(=O)CCCC(=O)OCC(F)(F)C(F)F)cc1	0.0
65	COc1ccc(NC(=O)CN(Cc2ccccc2)S(C)(=O)=O)cc1	i
66	N#CC1=C(N)Oc2c(ccc3ccccc23)C1c1ccsc1 (stereo not drawn)	2.5
67	COc1ccc(F)cc1S(=O)(=O)NC1CCCCCC1	0.6
68	COc1ccccc1N1CCN(C(=O)c2ccc(N3CCCC3=O)cc2)CC1	0.1
69	N#Cc1c(N2CCCCC2)nc(N)c2c(N)nc3c(c12)CC(c1ccccc1)O3 (stereo not drawn)	0.2
70	CCOC(=O)N1CCC(NS(=O)(=O)c2cc3c(cc2C)NC(=O)CO3)CC1	i
71	CCn1c(-c2cccc(Br)c2)n[nH]c1=S	0.6
72	Cn1c(CO)cnc1SCc1ccc(Cl)cc1	0.7
73	Cc1ccc2[nH]c(=O)c(CN(CCCO)S(=O)(=O)c3cccc4nsnc34)cc2c1	0.2
74	O=C(NCCN1CCOCC1)Nc1ccc(Cl)cc1	i
75	O=C(COc1ccc(S(=O)(=O)N2CCCC2)cc1Cl)NCc1ccco1	3.0
76	CCCCn1nnc(NC(=O)CCC)n1	0.3
77	N#Cc1c(N)n(C2CCCCC2)c2nc3ccccc3nc12	i
78	Cc1ccnc(N2CCN(C(=O)CSc3nc4ccccc4nc3N3CCCCC3)CC2)c1	1.0
79	COC(=O)C1CCN(C(=O)Nc2ccc(OC)cc2)CC1	i
80	Cc1ccc(S(=O)(=O)N2CCCN(S(=O)(=O)C3CCS(=O)(=O)C3)CC2)cc1 (stereo not drawn)	i
81	C=CCn1c(Cc2cccs2)nnc1SCC(=O)c1ccc(F)cc1	3.8
82	C=CCSc1nnnn1-c1ccc(OC)cc1	0.5
83	CCC1(C)Nc2ccccc2C(=O)N1O (stereo not drawn)	0.4
84	COc1ccc(OC)c(C2=Nn3c(nnc3-c3cc(OC)c(OC)c(OC)c3)SC2)c1	i
85	Cc1noc(C)c1COc1ccc(C(=O)OCC(=O)Nc2ccc3c(c2)OCO3)cc1	i
86	COc1cccc(OCCN2CCN(c3ncnc4c3cnn4-c3ccccc3)CC2)c1	1.2
87	CCc1sc(N(C(=O)Cc2ccccc2)c2cccc(F)c2)nc1-c1ccc(C)cc1	i
88	COc1ccc(CCN(Cc2cc3cc(C)cc(C)c3nc2Cl)C(=O)C2CC2)cc1	0.1
89	CC(=O)Nc1ccc2[nH]c(C)cc(=O)c2c1	1.2
90	CCOC(=O)N1CCC(NS(=O)(=O)c2ccc3c(c2)oc(=O)n3C)CC1	0.3

# In another format: results already given.
5. O=C(CN1CCN(Cc2ccc(F)cc2Cl)C1=O)NCCc1ccc(Cl)cc1
  H5N1 antiviral: 0.2
6. CC1CCCN(C(=O)C23CCC(C)(C(=O)C2)C3(C)C)C1 (stereo not drawn)
  H5N1 antiviral: 0.5

# (continued)
nr	Structure	H5N1 antiviral
91	COC(=O)c1cccc(CSc2nnc(-c3ccco3)n2-c2ccccc2)c1	1.6
92	CCCCN(CCCC)Cc1cc2ccccc2c2c1COC2	0.5
93	COC(=O)c1ccc(COc2cc(C)cc3oc(=O)c4c(c23)CCCC4)o1	i
94	N#Cc1c(/N=C/N2CCOCC2)sc2c1CCCCC2	0.9
95	Cc1ccc(C)c2[nH]c(=O)c(CCNC(=O)c3ccc(S(=O)(=O)N(C)C)cc3)cc12	1.5
96	Cn1cc(CC(=O)NCCCN2CCCC2)c2ccccc21	0.1
97	Cc1nnsc1NC(=O)OCc1ccc(Cl)cc1Cl	i
98	CC(CCc1ccccc1)NC(=O)c1cccnc1 (stereo not drawn)	0.8
99	C/C(=N\NC(=O)C1CC1c1ccccc1)c1ccc(C)s1 (stereo not drawn)	0.1
100	CCN(CC)c1ccc(NC(=O)CSc2nc3ccccc3c(=O)[nH]2)cc1	0.4
101	N#CC1=C(SCC(=O)Nc2nccs2)NC(=O)CC1c1ccccc1 (stereo not drawn)	0.7
102	O=C1SC(SCc2ccccc2)=N/C1=C\c1ccco1	i
103	CC(=O)Nc1ccc(S(=O)(=O)Nc2ccc(N3CCOCC3)cc2)cc1	1.0
104	COc1ccc(N(C(=O)c2ccc(Br)o2)C2C=CS(=O)(=O)C2)cc1 (stereo not drawn)	3.5
105	COc1cc2c(C)nc(C)c(C#N)c2cc1OC	2.4
106	OC1(c2ccccc2F)CCN(Cc2nnc(-c3ccccc3)o2)CC1	0.3
107	CN(c1ccccc1)S(=O)(=O)c1ccc(C(=O)OCC(=O)NCc2ccco2)cc1	1.4
108	Cc1ccc2nc(C3CCN(CC(=O)N4CCCCCC4)CC3)[nH]c2c1	0.1
109	CCOc1cc(N2CCOCC2)c(OCC)cc1NC(=O)C(NC(=O)c1ccco1)C(C)C (stereo not drawn)	0.4
110	Cc1ccccc1-n1nc(C(=O)O)c(C)c(C#N)c1=O	i
111	Cc1cc(C)cc(-n2nnnc2SCC(=O)Nc2nc(-c3ccc(F)cc3)cs2)c1	1.1
112	CCN=C1SC(C(N)=O)CC(=O)N1CC (stereo not drawn)	i
113	Cc1nnc(SCC(=O)Nc2nccs2)s1	1.1
114	COc1ccc(C2CC(c3cccc(C)c3)n3ncnc3N2)cc1 (stereo not drawn)	i
115	O=C(Nc1ccc(N2CCCCC2)c(C(=O)O)c1)c1ccco1	1.9
116	CC(C)(C)OC(=O)N1CCC(C(=O)N2CCCCCC2)CC1	0.2
117	Nc1scc(-c2ccncc2)c1Cl	i
118	O=C(CN1CCOCC1)Nc1ccccc1Cl	i
119	Brc1c(CSc2nc3ccccc3o2)nc2ncccn12	3.1
120	CCCCOc1ccc(C(=O)N2CCCC2)cc1	i
121	CC(=O)C1=C(O)C(=O)N(c2ccc(S(N)(=O)=O)cc2)C1c1ccccc1F (stereo not drawn)	0.2
122	Clc1ccccc1CSC1=NCCCN1	1.6
123	Cc1ccc(S(=O)(=O)NC2=NCN(Cc3cccnc3)CN2)cc1	0.6
124	Cc1c(C(=O)Nc2ccncc2)oc2c1C(=O)CC(C)(C)C2	i
125	O=c1[nH]nc(Sc2ncnc3sccc23)n1CCc1ccccc1	10.0
126	CCCc1cc(=O)oc2cc(OCC(=O)Nc3cc(C)on3)ccc12	i
127	CN1CCc2nc(SCCOc3ccccc3)c(C#N)cc2C1	0.3
128	CCN1CCN(CC(O)COc2ccc(C(C)=O)cc2)CC1 (stereo not drawn)	0.4
129	COc1cc(C2c3c(oc4ccccc4c3=O)C(=O)N2c2ccc(C)cn2)ccc1O (stereo not drawn)	0.2
130	CCc1cc2ccccc2nc1SCC(=O)N1CCN(C(=O)c2ccco2)CC1	i
131	CCc1cc2cc(C)c(C)cc2nc1SCC(=O)NNC(=O)c1ccco1	0.0
132	Cc1nn(Cc2ccccc2Cl)c(C)c1NC(=O)Cn1nc([N+](=O)[O-])c(Cl)c1C	0.4
133	CC(=O)Nc1ccc(S(=O)(=O)NNC(=O)c2ccc(C)cc2)cc1	1.6
134	c1csc(-c2csc3nc(CN4CCOCC4)nc(NCc4ccc5c(c4)OCO5)c23)c1	i
135	Fc1ccc(Br)cc1C1C=C(c2ccc(Br)s2)Nc2ncnn21 (stereo not drawn)	i
136	C=CCNc1nnc(SCC(=O)N2CCCCC2)c2ccccc12	3.9
137	O=C(c1cccs1)N(CC1CCCO1)c1nc(-c2ccccc2)cs1 (stereo not drawn)	i
138	Cn1nnc2cc(C(=O)NC(C)(C)C)ccc21	i
139	Cc1ccc(NC(=O)CS(=O)CC(=O)N(CC(=O)NC2CCCC2)c2cc(C)ccc2C)cc1 (stereo not drawn)	i
140	COc1cccc(-c2nc(C(N)=O)c3[nH]c(=O)n(-c4ccccc4)c3n2)c1OC	2.3
141	CC(C)(C)c1ccc(C(=O)CSc2ncn[nH]2)cc1	1.6

# Source: PubChem BioAssay (SRMLSC)
